# KCNQ2 pot: potentiators of rat KCNQ2 potassium channel | B-score at 10 µM | CHO-K1 KCNQ2, FluxOR thallium flux fluorescence; hits give high values | actives 0.54% (n = 310,000) | AID 2239, 2010;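 active = fluorescence ratio B-score at least 3 SD of library B-scores, with initial fluorescence B-score within 3 SD, cut at about 5.3 in these data; same plate scores as AID 2156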;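 note: B-score of peak minus minimum over baseline fluorescence ratio after K+ and Tl+ stimulus; positive B-score means potentiation of KCNQ2 with more thallium influx and brighter signal; only the inactives scoring about 0 or higher are listed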
# Target sequence (O88943 whole entry, looked up): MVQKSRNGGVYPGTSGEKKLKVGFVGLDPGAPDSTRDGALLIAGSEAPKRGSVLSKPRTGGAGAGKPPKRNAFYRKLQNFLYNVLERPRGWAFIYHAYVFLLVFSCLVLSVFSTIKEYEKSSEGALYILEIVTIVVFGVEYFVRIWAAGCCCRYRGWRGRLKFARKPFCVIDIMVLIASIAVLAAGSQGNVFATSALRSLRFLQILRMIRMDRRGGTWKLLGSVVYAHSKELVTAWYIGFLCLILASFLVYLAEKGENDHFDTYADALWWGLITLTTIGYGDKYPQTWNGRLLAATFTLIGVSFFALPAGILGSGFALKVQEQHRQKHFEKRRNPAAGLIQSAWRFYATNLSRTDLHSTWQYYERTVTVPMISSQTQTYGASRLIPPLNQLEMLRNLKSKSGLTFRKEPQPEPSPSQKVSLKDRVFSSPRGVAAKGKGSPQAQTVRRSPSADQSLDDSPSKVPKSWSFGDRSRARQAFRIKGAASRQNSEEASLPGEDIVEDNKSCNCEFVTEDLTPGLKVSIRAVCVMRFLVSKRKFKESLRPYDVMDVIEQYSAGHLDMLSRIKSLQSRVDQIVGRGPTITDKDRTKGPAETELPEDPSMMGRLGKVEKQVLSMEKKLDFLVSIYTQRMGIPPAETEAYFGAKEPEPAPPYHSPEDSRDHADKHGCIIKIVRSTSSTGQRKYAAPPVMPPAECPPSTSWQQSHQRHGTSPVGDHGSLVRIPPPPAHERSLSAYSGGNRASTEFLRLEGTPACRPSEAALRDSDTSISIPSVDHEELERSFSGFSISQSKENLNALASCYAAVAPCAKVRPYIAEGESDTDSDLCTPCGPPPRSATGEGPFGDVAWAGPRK
# KCNQ2 pot baseline: also measured in KCNQ2 pot; calls as there; B-score; compound at 10 µM; measured here: initial fluorescence intensity artifact check;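 brightness before thallium and not channel activity; 0 = typical well and far values either way flag optical interference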
# Starred values were filed as active, the others as inactive; . = not tested or not shown.
# A first look (2 entries):
KCNQ2 pot	KCNQ2 pot baseline	SMILES
1.2	2.2	CCOC(=O)c1c(C)n(-c2ccc(C)cc2)c2c(C(C(C)=O)C(=O)O)c(Br)c(O)c(O)c12 (stereo not given)
0.36	-1	CCc1c(C)nc(N2CCN(c3ccc(Cl)cc3)CC2)[nH]c1=O

# The list itself, from the first entry:
KCNQ2 pot	KCNQ2 pot baseline	SMILES
1.2	2.2	CCOC(=O)c1c(C)n(-c2ccc(C)cc2)c2c(C(C(C)=O)C(=O)O)c(Br)c(O)c(O)c12 (stereo not given)
0.36	-1	CCc1c(C)nc(N2CCN(c3ccc(Cl)cc3)CC2)[nH]c1=O
0.02	0.04	CC(=O)N(CCCCl)C(C#N)c1ccccc1 (stereo not given)
1.2	1.3	Cc1ccc2[nH]c(O)c(N=NC(=O)CCc3ccccc3)c2c1Br
2.2	0	COCCNC(=O)CN(Cc1ccc(F)cc1)C(=O)CCC(=O)Nc1nccs1
0.53	0.02	O=C(O)c1ccccc1C(=O)NCCc1c(C(=O)O)[nH]c2ccc(Cl)cc12
0.18	2.6	O=C(Nc1ccc(O)c(-c2nc3ccccc3s2)c1)c1cc(=O)c2ccccc2o1
0.87	0.63	C#CCOCCOCCOCCNc1nc(N2CCN(C(=O)Cn3cc(CCCCN)nn3)CC2)nc(N2CCN(C(=O)[C@H](C(C)C)n3cc(CCO)nn3)CC2)n1
0.31	-0.64	CC(C)n1cc(C(N)=S)c(=O)n(Cc2ccccc2)c1=O
0.41	-1.9	CN=CC1=C(O)C(C(=O)OC)C(C)(C)CC1=O (stereo not given)
2.3	0.42	CC1CCCC/C1=N\Nc1ccc(S(N)(=O)=O)cc1[N+](=O)[O-] (stereo not given)
0.02	-0.25	C=CCn1cccc(C(=O)Nc2ccc(Cl)cc2)c1=O
0.9	0.7	CCCNC(=O)c1cc(-c2ccccc2)c(N2CCCCC2)s1
1.5	-0.28	CC(NC(=O)c1ccc(Cl)c(Cl)c1)c1ccc(-c2ccccc2)cc1 (stereo not given)
1.1	-0.16	O=C(c1cc(-c2ccccc2O)on1)N1CCc2ccccc2C1

# 3 entries out of the list, ordered by number of heavy atoms, rising:
KCNQ2 pot	KCNQ2 pot baseline	SMILES
0.41	-1.9	CN=CC1=C(O)C(C(=O)OC)C(C)(C)CC1=O (stereo not given)
1.2	1.3	Cc1ccc2[nH]c(O)c(N=NC(=O)CCc3ccccc3)c2c1Br
0.53	0.02	O=C(O)c1ccccc1C(=O)NCCc1c(C(=O)O)[nH]c2ccc(Cl)cc12

# Later entries.
KCNQ2 pot	KCNQ2 pot baseline	SMILES
0.22	-0.4	CCCOC(=O)c1cc(NC(=O)/C=C/c2ccccc2)ccc1O
1.1	-1.5	C=CCSC1=C(C#N)C2(CCCCC2)C(C#N)C(=O)N1 (stereo not given)
0.82	2.6	CC(=O)c1cc(F)c(N2CCCC2)cc1C
1.6	0.38	CCN(CCO)c1nc(NCc2ccccc2)c2cnn(C)c2n1
0.19	-0.26	COc1ccc(C(=O)N/N=C2\CCc3ccccc32)cc1OC
0.47	1.3	COc1ccc(OCC(=O)Nc2c3c(nn2-c2ccc(OC)cc2)CS(=O)(=O)C3)cc1
0.02	0.48	CC(=O)c1c(COC(=O)c2cccnc2)nc2ccccc2[n+]1[O-]
0.37	-2	COc1ccc(-c2cn3ccsc3n2)cc1
0.68	-1.1	CCOc1ccc(-n2c(SCC(=O)Nc3nccs3)nc3c(c2=O)SCC3)cc1
0.85	-1.1	Cc1cccn2c(=O)c(/C=C(\C#N)C(=O)NC3CCS(=O)(=O)C3)c(N3CCC(C)CC3)nc12 (stereo not given)
1	-0.13	COCCn1c(=O)[nH]c2cc(C(=O)NCCCN3CCN(c4ccc(F)cc4)CC3)ccc2c1=O
1.6	0.89	Cc1ccc(S(=O)(=O)N(C)C)cc1NC(=S)NC(C)CCCC(C)C (stereo not given)
0.4	-0.2	CCN(CC)S(=O)(=O)c1cccc(NC(=O)C2SC(=Nc3ccc(C)cc3C)C(C(=O)NC(C)COC)=C2N)c1 (stereo not given)
0.45	-2	O=S(=O)(Nc1nc2ccccc2nc1OCC(F)(F)F)c1cccs1
1.3	-1.6	O=C1NC(=O)/C(=C\c2ccccc2Oc2ccc(F)c(F)c2)S1

KCNQ2 pot	KCNQ2 pot baseline	SMILES
0.8	-1.7	Cc1ccnc(NC(=S)NC(=O)/C=C/c2ccc(Cl)cc2)c1
0.43	-1.8	Cc1cc([N+](=O)[O-])ccc1-c1ccc(/C=N/NC(=O)c2ccc(Br)o2)o1
0.08	-0.65	Cc1cccc(OCC2=N/C(=C\N(C)C)C(=O)O2)c1
0.04	-0.12	CCOC(=O)CSc1nsc(SCC(=O)OCC)c1C#N
0.43	-1.9	CCC(=O)N1CCc2cc(S(=O)(=O)CCC(=O)Nc3ccc(C)cn3)ccc21
1.7	0	CCOC(=O)c1c(NC(=O)c2ccccc2C(=O)O)sc2c1CCC2
0.35	-3.2	COc1ccc(-n2c(C)cc(C(=O)Cn3c(NCCO)nc4ccccc43)c2C)cc1
1.9	0.53	CCOc1ccc(NC(=S)N2CCC(NC(=O)c3ccccc3C)CC2)cc1
1.5	-1.2	CN1CCc2c(sc(/N=C/c3c[nH]c4ccccc34)c2C(N)=O)C1
0.32	1	COC(=O)c1ccc2c(C(C)(C)O)c(C(C)(C)O)[nH]c2c1
0.61	1.3	COc1ccc(/C(C)=C(\C#N)C(=O)OC(C)C)cc1OC
4.3	0.03	Cc1c(O)nc(SCC(=O)Nc2ccc3c4c(cccc24)CC3)n(-c2ccc(F)cc2)c1=O
1.1	-1.3	CN(C)c1ccc(NC(=O)CN2CCc3ccccc3C2)cc1
0.14	1.8	CCn1c(SCC(=O)Nc2ccc(OC)c(OC)c2)nnc1-c1ccco1
0.59	-1.7	Cc1cccc(Nc2nc(NC(C)C)nc(Oc3ccc(=O)n(C)n3)n2)c1

KCNQ2 pot	KCNQ2 pot baseline	SMILES
0.85	-1.1	O=C(O)C1C2CCC(C2)C1C(=O)NCc1ccco1 (stereo not given)
0.57	0.7	O=C(CCC(=O)N(Cc1ccco1)C(C(=O)NC1CCCC1)c1ccncc1)Nc1cccnc1 (stereo not given)
0.84	-0.79	CCOc1ccc(N(CC(=O)NCCc2ccc(C)cc2)S(=O)(=O)c2c(C)noc2C)cc1
6.5*	-2.1*	S=C(Nc1ccccc1)Nc1nccs1
0.2	2.8	COc1ccc(NC(=O)CN2CCC(C(N)=O)(N3CCCCC3)CC2)cc1
0.7	0.8	CCn1nccc1C(=O)Nc1ccc(Cl)cn1
0.05	0.97	N#C/C(=C(\O)c1cc(Cl)sc1Cl)c1nc2ccccc2[nH]1
0.1	-0.64	CNc1c([N+](=O)[O-])cnn1-c1ccccn1
1	-0.1	CCc1nnc(NC(=O)CSc2nnc(Cc3ccccc3)o2)s1
0.59	0.13	CCc1nnc(NC(=O)CCC(=O)O)s1
0.25	0.42	N#CC(c1ccccc1)c1cnccn1 (stereo not given)
0.09	0.81	COc1ccccc1NC(=O)Nc1cnccn1
0.64	0.16	CCc1nc(Nc2cc(OC)ccc2OC)c2oc3ccccc3c2n1
0.25	1.2	O=C(COC(=O)c1ccc(O)cc1)Nc1ncc(Cl)cc1Cl
0.32	2.1	Cc1ccc(OC(C)c2nnc(N)s2)cc1Cl (stereo not given)

KCNQ2 pot	KCNQ2 pot baseline	SMILES
1.2	0.7	COCCN(C(=O)COC(=O)C1CC1)c1c(N)n(Cc2ccccc2)c(=O)[nH]c1=O
0.93	-2.5	Cc1ccc(C)c(N(CC(=O)NC(C)(C)C)C(=O)CCC(=O)Nc2nccs2)c1
0.01	1.4	COc1cccc(CN2CC(C(=O)NCc3ccc(C)c(F)c3)CCC2=O)c1 (stereo not given)
1.1	-0.8	COc1ccc(OC)c(S(=O)(=O)N2CCC(C(=O)NCc3ccccn3)CC2)c1
1.2	-0.06	COc1ccc(S(=O)(=O)N2CCOCC2)cc1NC(=O)CSc1nnc2c(n1)[nH]c1ccccc12
1.1	-0.03	CCN(C(=O)c1ccnn1C)c1ccccc1
0.23	1.7	CCOc1ccc(NC(=O)C(Cc2ccccc2)N2C(=O)c3cccc4cccc(c34)C2=O)cc1 (stereo not given)
0.45	2	CCC(=O)N1CCc2cc(S(=O)(=O)Nc3ccc4c(c3)OCCO4)ccc21
1.5	-0.24	CCOC(=O)CC(=O)c1[nH]c(C)c(C(=O)OCC)c1C
1	-0.69	c1ccc2cc3[nH]c(CN4CCOCC4)nc3cc2c1
0.25	.	CC1=Nc2ccc(C)cc2/C1=C/c1c(N)n2oc(C)cc2nc1=O
0.03	0.39	CCNC(=O)c1cc(S(=O)(=O)N(C)C)c(Cl)cc1Cl
0.05	-0.61	O=C(Cn1cnc2cc([N+](=O)[O-])ccc2c1=O)Nc1cccc(S(=O)(=O)N2CCOCC2)c1
0.69	-1.2	CCOC(=O)c1cnc2c(-c3ccccc3)c(C)nn2c1N
0.02	-0.65	CCOC(=O)c1nn(-c2ccc(F)cc2)c(=O)c2c(N)scc12

KCNQ2 pot	KCNQ2 pot baseline	SMILES
1.6	0.55	CCOCCCNCc1cc(Cl)cc(Cl)c1OCC
0.05	0.55	O=c1c2ccccc2c(-c2ccccc2)nn1Cc1ccccc1
1.8	-2.3	Cc1cc(S(=O)(=O)Nc2ccc3c(c2)n(C)c(=O)n3C)ccc1F
0.61	-0.87	Cc1cc(C)c(C(=O)CSc2nnc(C)s2)c(C)c1
1.7	-1.4	O=C(Cn1ncc2c(=O)oc3ccccc3c21)N1CCN(c2ccccn2)CC1
0.52	1.4	CCN1CCN(Cc2cc(=O)oc3cc(C)cc(C)c23)CC1
1	-0.07	COc1cccc(/C=C2\Sc3ccc(C(=O)NCC4CCCO4)cc3N(C)C2=O)c1 (stereo not given)
0.71	-2.3	Clc1ccc(-c2ccc(CNCC3CCCO3)o2)cc1 (stereo not given)
0.73	-3.5	O=C(CSc1ncnc2c1cnn2-c1ccccc1Cl)N1CCN(C(=O)c2ccco2)CC1
0.68	0.25	CCC(=O)NNc1nc2c(F)cc(F)cc2s1
0.04	-0.34	Cc1nn(CC(=O)NCC(C)c2ccccc2)c(=O)c2cccn12 (stereo not given)
2	-0.8	Clc1ccccc1OCc1nnc2n1CCCCC2
0.1	0.52	C#CCOCCOCCOCCNc1nc(N2CCN(C(=O)[C@H](CCC(=O)O)n3cc(C(N)CC(C)C)nn3)CC2)nc(N2CCN(C(=O)[C@H](Cc3cc4ccccc4[nH]3)n3cc(C(N)[C@H](C)CC)nn3)CC2)n1 (stereo not given in full)
0.81	0.43	Cc1ccc2c(c1)/C(=N/OS(=O)(=O)c1ccccc1)CCS2
1.4	0.05	CCN(C(=O)CSc1nc2ccccc2n1CC)C1CCS(=O)(=O)C1 (stereo not given)

KCNQ2 pot	KCNQ2 pot baseline	SMILES
0.33	0.42	O=C(Nc1ccccc1)Oc1ccc[nH]c1=O
1.6	-0.46	O=C(Nc1ccc(-n2cc(Cl)cn2)cc1)c1ccncc1
0.44	1.5	CCNc1nc(CN2CCCCC2)nc2scc(-c3ccccc3)c12
0.27	-1	O=C(/C=C/c1ccccc1Cl)NCc1cccs1
1.7	0.59	CC(C(=O)NCc1ccco1)n1cc([N+](=O)[O-])cn1 (stereo not given)
0.09	-0.23	C=CCc1cccc(/C=N/NC(=O)COc2ccc(-n3cnnn3)cc2)c1O
0.17	1.7	COc1ccc2cc(S(=O)(=O)N3CCCC(C)C3)ccc2c1 (stereo not given)
0.28	-0.63	CN1CCN(C(=O)c2ccccc2NC(=O)Cc2ccccc2)CC1
1.1	-0.01	COc1ccc2cc3cc(C(=O)NC4CC4)sc3nc2c1
2.1	1.2	O=C(O)C1(NS(=O)(=O)c2ccc(F)c(Cl)c2)CCCCC1
1.7	-1.1	CC(=O)Nc1ccc2nc(SCC(=O)NCCOc3ccccc3)sc2c1
2.6	-0.09	CCc1cc2c(NCCC(=O)O)nc(C)nc2s1
0.88	0.9	CCOC(=O)C1CCCN(C(=O)Cn2cnc3c2c(=O)n(C)c(=O)n3C)C1 (stereo not given)
1.5	-1.4	CCNS(=O)(=O)c1ccc(NC(=O)Nc2ccccc2OC)cc1
0.37	-0.32	CC(=O)NC(Cc1ccccc1F)C(=O)NC1CCN(S(=O)(=O)c2ccccc2)CC1 (stereo not given)

# Seven compounds out of the list above, sorted by the value under KCNQ2 pot, lowest first:
Compound	KCNQ2 pot	KCNQ2 pot baseline
O=C(/C=C/c1ccccc1Cl)NCc1cccs1	0.27	-1
CN1CCN(C(=O)c2ccccc2NC(=O)Cc2ccccc2)CC1	0.28	-0.63
CC(=O)NC(Cc1ccccc1F)C(=O)NC1CCN(S(=O)(=O)c2ccccc2)CC1 (stereo not given)	0.37	-0.32
CCNS(=O)(=O)c1ccc(NC(=O)Nc2ccccc2OC)cc1	1.5	-1.4
CC(C(=O)NCc1ccco1)n1cc([N+](=O)[O-])cn1 (stereo not given)	1.7	0.59
O=C(O)C1(NS(=O)(=O)c2ccc(F)c(Cl)c2)CCCCC1	2.1	1.2
CCc1cc2c(NCCC(=O)O)nc(C)nc2s1	2.6	-0.09

# More entries:
KCNQ2 pot	KCNQ2 pot baseline	SMILES
0.29	0.04	COc1ccc(-c2c(C)c3ccc(O)cc3oc2=O)cc1
0.17	-1.5	NS(=O)(=O)c1cccc(NC(=O)COC(=O)C2CCN(S(=O)(=O)c3cccs3)CC2)c1
1.5	-0.43	CCOC(=O)c1[nH]n(-c2ccc(Cl)cc2)c(=O)c1C
0.37	-0.68	CCOCCCNC(=S)Nc1ccc2nc3n(c(=O)c2c1)CCCCC3
0.69	0.47	CC(=O)C1=C(O)C(=O)N(CCc2c[nH]c3ccccc23)C1c1ccco1 (stereo not given)
1.2	1	NS(=O)(=O)c1ccc(CCNC(=O)COC(=O)C2CCN(c3ccc(C(F)(F)F)cn3)CC2)cc1
0.01	-0.02	O=C(c1ccc(Cl)cc1)N1N=C(c2ccccn2)CC1(O)C(F)(F)F (stereo not given)
0.07	1.5	O=C(NC(Cc1c[nH]c2ccccc12)C(=O)N/N=C/c1cccnc1)c1cccs1 (stereo not given)
1.7	-0.37	COCCCN1C(=O)c2ccc(C(=O)Nc3ccccc3Cl)cc2C1=O

# From PubChem

# The list is partial; count on the stated rates, not on these rows.
